AID504770: growth inhibition of E. coli YBA685, primary screen, V. cholerae RctB inhibitors; z-score (no concentration beside the values); AID 504770, 2011; actives 0.27% (n = 130,000); E. coli YBA685 rctB-dependent plasmid, OD600 growth, 3 h; hits give low values;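 active = z-score under -2 on both plates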;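 note: wells of about 30 µL received 100 nL stock; score is relative to mean and SD of the test wells; the first replicate is given; strong numbers were not always called active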
Ba CapD inh: Bacillus anthracis CapD inhibitors, primary screen, biochemical, fluorescence intensity; CapD gamma-glutamyltranspeptidase (Bacillus anthracis Ames Ancestor); purified CapD enzyme, fluorescence intensity read-out; hits give low values; some hits fall short of the stated cut; z-score (no concentration beside the values); actives 0.23% (n = 140,000);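 active = z-score under -4 in either of two replicates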;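 note: stock transfer was 100 nL into about 40 µL; score is relative to mean and spread of the plate; one replicate is shown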
The depositor's hits bear a star; nt = not tested or not shown.

smiles | AID504770 | Ba CapD inh
CC1COC(c2cccn2Cc2ccc(Cl)cc2)=N1 (stereo not drawn) | -0.6 | 0.49
CCOC(=O)c1cc(-c2ccccc2)sc1NC(=O)CN1CCc2ccccc21 | -0.7 | 0.42
CCCCc1ccc(N=Cc2nc(-c3ccc(Br)cc3)oc2O)cc1 | nt | -0.02
CCOC(=O)C1=C(O)/C(=C/c2ccc(N3CCOCC3)o2)SC1=Nc1ccc(OCC)cc1 | 1.8 | -0.21
O=C(Nc1ccccc1)NC(COC(=O)Nc1ccccc1)c1ccccc1 (stereo not drawn) | nt | -0.27
O=C(Nc1ccccc1)OCC(CN1CCCCC1)OC(=O)Nc1ccccc1 (stereo not drawn) | nt | -0.71
CN1CCN(C(CNC(=O)c2cccc(F)c2)c2ccc(F)cc2)CC1 (stereo not drawn) | -0.2 | nt
CCC1CSC(Nc2ccccc2)=N1 (stereo not drawn) | -0.35 | -0.53
O=C(Cc1ccc(Cl)cc1)NCCCn1ccnc1 | -0.85 | -0.17
Cc1nc2sc(C(c3cccs3)N3CCC(C)CC3)c(O)n2n1 (stereo not drawn) | 0 | -0.64
C=C(C)c1ccccc(=O)c1O | -5* | -3.1
CCOC(=O)c1c(NC(=O)CSc2nnc(CNC(=O)COc3ccccc3)n2C)sc2c1CCCCC2 | nt | -1.3
O=C(CN1C2=NCCCN2c2ccccc21)c1ccccc1 | nt | -0.7
COc1cccc2c1Oc1ncccc1N(c1ccc(C(=O)N3CCCC3)s1)C2 | -1.2 | 65
CC1CN(C(=N)N)CC(C)O1 (stereo not drawn) | -0.3 | -0.055
CCCN1CCN(C(=O)c2sc3ncnc(N4CCN(c5ccccc5)CC4)c3c2C)CC1 | nt | -0.53
CC(C)(C)C(=O)Nc1ccncc1 | -0.6 | 0.83
Cc1nc(Nc2ccc(S(N)(=O)=O)cc2)oc1C | -0.95 | nt
COCCNC(=O)Cn1nc(C)c(NC(=O)c2cc(-c3ccc(F)cc3)no2)c1C | -0.75 | -0.45
O=C(CSc1ncccc1C(=O)O)NC1CCCCC1 | -1.1 | 8.7
O=C1c2ccccc2-c2onc3ccc(Nc4ccc(Cl)cc4)c1c23 | nt | -0.15
CNCc1ccccc1F | -0.8 | nt
CC(C)Cn1c(-c2ccco2)csc1=Nc1cccnc1 | -0.15 | nt
COc1cc(C(=O)N/N=C/c2cn(-c3ccccc3)nc2-c2ccccc2)cc(OC)c1OC | nt | 1.1
CCOC(=O)c1cc(CC)sc1NC(=O)CC1Nc2ccccc2NC1=O (stereo not drawn) | -0.3 | 0.02

(cont.)
smiles | AID504770 | Ba CapD inh
CCOC(=O)c1cnc2ccc(OC)cc2c1Nc1ccc(OC)cc1 | nt | -0.69
COc1cc(C(=O)Nc2ccccc2C(=O)N2CCCCC2)cc(OC)c1OC | 0.65 | 0.13
CCOC(=O)C1=C(CSc2n[nH]c(COc3ccc(C)cc3)n2)NC(=O)NC1C (stereo not drawn) | 0 | nt
CC(C)CCNC(=O)c1cc(=O)c2ccccc2o1 | -0.6 | nt
Cn1ccnc1-c1nc2ccccc2n(CC(=O)OCc2ccc(C#N)cc2)c1=O | 0.25 | nt
O=c1cc[nH]cc1-c1ccc(Cl)cc1 | -0.8 | nt
COc1cc(-c2nc(N3CCC(C)CC3)c3ccccc3n2)cc(OC)c1OC | nt | 10
CN(C)/C=C1\C(=O)N(c2ccc(F)cc2F)C(c2cccnc2)S1(=O)=O (stereo not drawn) | 0.65 | -2.4
Fc1ccc(N=Cc2c(F)cccc2Cl)cc1Cl | nt | 0.49
CCOC(=O)c1ccc(N2C(=O)NC(=O)/C(=C/c3ccc(OC)cc3OC)C2=O)cc1 | nt | 0.13
N#Cc1ccc(NC(=O)C2CCC(C(=O)Nc3ccc(C#N)cc3)CC2)cc1 (stereo not drawn) | 0.4 | -1.3
CCOC(=O)C1=NN(c2ccccc2)C2C(=O)N(c3ccccc3)C(=O)C12 (stereo not drawn) | nt | 0.88
CCc1nn(CC(=O)NCCc2ccc(S(N)(=O)=O)cc2)c(=O)c2cc3sccc3n12 | -1.1 | 0.4
CC(=O)Nc1nc2ccccc2n1CCCN(C)C | nt | 0.57
COc1ccc(CCn2c(-c3ccc([N+](=O)[O-])cc3)csc2=Nc2cccc(C(F)(F)F)c2)cc1OC | nt | -0.3
CCOC(=O)CSc1ccc2nnc(CCNS(=O)(=O)c3ccc(C)cc3)n2n1 | -0.25 | 0.005
Cn1c(SCC(=O)NCCN2C(=O)CSC2=S)nnc1C(F)(F)F | 0.5 | nt
FC(F)(F)Cc1nc2ccccc2s1 | 1.1 | -0.49
O=C(Nc1cccc2ccccc12)OC1C=CS(=O)(=O)C1 (stereo not drawn) | -0.65 | nt
CCOC(=O)C1=C(O)/C(=C/c2ccc(Cl)cc2)SC1=Nc1cccc2ccccc12 | nt | -0.69
CCCOC(=O)C[n+]1cn(CC)c2ccccc21 | -0.55 | 0.84
CCOC(=O)c1oc2ccc(Br)cc2c1CSc1nnc2ccccn12 | -0.2 | nt
CC1CC(C)CN(C(=O)c2cc3c(s2)CCC3)C1 (stereo not drawn) | -0.55 | nt
COc1ccc(F)c(CN2CCN(S(=O)(=O)c3cc(F)c(Br)cc3F)CC2)c1 | nt | 0.04
Oc1ccc(-c2cn3ccsc3n2)cc1 | -0.75 | -0.35

The listing continues:
smiles | AID504770 | Ba CapD inh
S=C(NCCc1ccccc1)NC1CC1 | -0.35 | -0.6
O=C(NCCc1ccccc1)C1CCCN(c2nnc(-n3cccc3)s2)C1 (stereo not drawn) | -1.4 | 0.45
O=C(Nc1nnc(SCc2ccccc2)s1)c1cccs1 | -1 | 0.66
COC(=O)/C=C/S(=O)(=O)c1ccc(NC(C)=O)cc1 | -1.1 | -0.42
CCOC(=O)/C(C(=O)Nc1ccc(Br)cc1)=C1/NC(C)(C)Cc2ccccc21 | nt | 0.25
O=CN(Cc1ccco1)C1(C(=O)NC2CCCCC2)CCCCC1 | 0.95 | nt
CCN(CC)S(=O)(=O)c1ccc(Cl)c(C(=O)N2CCN(c3ncccn3)CC2)c1 | -0.4 | nt
CC(C)(C)NC(=O)N1CCOCC1 | -0.7 | -0.28
COc1cnc(-c2ccccn2)nc1Oc1ccc(Cl)c2ccccc12 | nt | 0.23
O=C(CSc1nc(-c2ccccc2)c(-c2ccccc2)o1)NCCN1C(=O)CSC1=O | 0.25 | nt
O=C(/C=C/c1cccc(Cl)c1)Oc1ccccc1NC1=NS(=O)(=O)c2ccccc21 | nt | 2
Cc1ccc(Cn2c(C)c(CNC(C)CCc3ccccc3)c(C(=O)O)c2C)cc1 (stereo not drawn) | 0.4 | 0.23
O=C1CC(c2ccco2)Cc2nc(NC3CC3)ncc21 (stereo not drawn) | -0.15 | -0.55
O=C(O)c1cc(-c2ccccc2)n[nH]1 | 0.5 | -0.45
COC(=O)c1ccn(-c2nc(-c3ccco3)cc(C(F)(F)F)n2)n1 | -1.3 | 75
Cc1ccc(C2(O)CN(c3cccc(C)c3C)C3=[N+]2CCCS3)cc1 (stereo not drawn) | nt | -0.64
CN(C)C1=Nc2ccccc2P1(O)=S (stereo not drawn) | -0.9 | nt
Cc1ccc(Nc2nc(N)nc(CSc3ccc(F)c(Cl)c3)n2)cc1 | 0.15 | nt
Cc1ccccc1OCC1CN(CN2CCC(C)CC2)C(=O)O1 (stereo not drawn) | 0.3 | 1.9
Cc1[nH]c2c(NC(=O)c3cccs3)cccc2c1C | nt | -1.1
COc1cc2ncnc(N3CCN(C)CC3)c2cc1OC | 0.35 | 2.5
CCSc1nc2ccccc2n1CC(=O)NCc1ccc(OC)cc1 | -0.65 | 0.38
CC(C)(C)c1cc(N)n(-c2ccc(Br)cc2)n1 | -0.75 | nt
c1cc2c(cc1N=C1SCC3CCCCN13)OCO2 (stereo not drawn) | nt | 0.38
O=C(CN1C(=O)CSCC1=O)Nc1ccc(Cl)cc1 | -0.45 | nt

(further entries)
smiles | AID504770 | Ba CapD inh
Cc1nnc(SC(C)C(=O)NC2CCCCC2)[nH]c1=O (stereo not drawn) | 0.15 | nt
COCCN(CCOC)S(=O)(=O)c1ccc(C(=O)Nc2nc3ccc([N+](=O)[O-])cc3s2)cc1 | nt | 0.98
CC(=O)c1c(C)cc(C)c(CSc2nnc(-c3ccco3)n2-c2ccccc2)c1C | nt | -0.06
CCC1CCC(NCC(C)(C)CN(C)C)CC1 (stereo not drawn) | -0.3 | -0.26
O=C(CSc1nnc(NC(=O)c2ccc(Cl)c(Cl)c2)s1)Nc1ccc(F)c(F)c1F | -0.35 | 8.4
O=C(CCC(=O)c1ccc(Cl)s1)OCc1nc2ccccc2s1 | 0.45 | nt
CC1CCN(C(=O)COC(=O)c2ccc3ccccc3n2)CC1 | -0.65 | 1.9
Brc1ccc(Nc2nc(-c3ccncc3)nc3ccccc23)cc1 | nt | 0.02
CCc1cc2c(=S)[nH]cnc2s1 | 0.7 | nt
NC(=O)CSc1nnc(-c2cccs2)n1-c1ccc(Cl)cc1 | 0.65 | 0.65
O=S1(=O)CCC(Sc2ccc(Cl)cc2Cl)c2ccsc21 (stereo not drawn) | nt | -0.03
O=C(NCc1ccccc1)c1cccn(Cc2c(Cl)cccc2Cl)c1=O | nt | 54
COc1cc2c(=O)oc(-c3cccs3)nc2c(OC)c1OC | 0.25 | -0.55
Cc1cccc(N=Cc2c(Nc3cccc(C)c3)nc3ccccn3c2=O)c1 | 0 | 54
COc1ccc(OC)c(C2C(C(=O)OCCOc3ccccc3)=C(C)NC3=C2C(=O)CC(C)(C)C3)c1 (stereo not drawn) | nt | 28
C=CCn1c(SCc2ccc(C(=O)NCCO)cc2)nc2sc(C)c(C)c2c1=O | nt | -0.81
Cc1cc(C)c(C#N)c(N2CCN(S(=O)(=O)Cc3ccccc3)CC2)n1 | nt | 2.4
N#Cc1ccc(-n2nnc3ccccc32)cc1C#N | 2.3 | 17
Fc1ccccc1-c1ccc2cccnc2n1 | nt | -0.4
CCNC(=S)N1C2CCCC1CC(NC(=O)C1CC1)C2 (stereo not drawn) | -1.1 | nt
CCOC(=O)c1ccccc1NC(=O)Cn1ncc2c1-c1cc(C)ccc1OC2 | 0.25 | 0.64
CN1CCN(c2c(N)c(=O)oc3ccccc23)CC1 | -0.1 | -0.55
OC(Cn1nnc2ccccc21)c1ccccc1 (stereo not drawn) | -2.5 | nt
COC(=O)C1CCN(C(c2ccc(F)cc2)c2ccc(F)cc2)CC1 | -0.2 | nt
Cc1cc(C)cc(NC(=O)Cc2ccc(OC(=O)c3ccccc3C)cc2)c1 | nt | 0.27

Profiles from above. Order of values: AID504770	Ba CapD inh
Cc1cc(C)cc(NC(=O)Cc2ccc(OC(=O)c3ccccc3C)cc2)c1 reads nt	0.27
O=C(CCC(=O)c1ccc(Cl)s1)OCc1nc2ccccc2s1 reads 0.45	nt
O=C(NCc1ccccc1)c1cccn(Cc2c(Cl)cccc2Cl)c1=O reads nt	54
O=S1(=O)CCC(Sc2ccc(Cl)cc2Cl)c2ccsc21 (stereo not drawn) reads nt	-0.03
Cc1cc(C)c(C#N)c(N2CCN(S(=O)(=O)Cc3ccccc3)CC2)n1 reads nt	2.4

Four records picked at random from the list so far, as already listed:
smiles | AID504770 | Ba CapD inh
Cc1ccc(C2(O)CN(c3cccc(C)c3C)C3=[N+]2CCCS3)cc1 (stereo not drawn) | nt | -0.64
CCCOC(=O)C[n+]1cn(CC)c2ccccc21 | -0.55 | 0.84
CC(C)(C)c1cc(N)n(-c2ccc(Br)cc2)n1 | -0.75 | nt
O=C(/C=C/c1cccc(Cl)c1)Oc1ccccc1NC1=NS(=O)(=O)c2ccccc21 | nt | 2

Following part:
smiles | AID504770 | Ba CapD inh
O=C(CSCc1cc2cccc3c2n(c1=O)CCC3)N1CCOCC1 | nt | 9.6
Cc1cc(C(=O)NNC(=O)C2CCCN2C(=O)OC(C)(C)C)n[nH]1 (stereo not drawn) | nt | -0.07
CC(=O)N1CCN(c2nc(-c3ccccc3)c3cc(C)ccc3n2)CC1 | nt | 0.14
O=C1C(=O)N(c2nccs2)C(c2ccc(Cl)cc2)/C1=C(/O)c1ccc(F)cc1 (stereo not drawn) | nt | -0.54
FC(F)(F)c1ccc(C2=NCCO2)cc1 | -0.4 | 0.76
O=C(Nc1ccccc1Sc1ncc(-c2ccc(Cl)cc2)cn1)c1cc(Cl)nc(Cl)c1 | nt | -0.52
Cc1cccc(-n2cc(-c3cc4cc(Cl)ccc4oc3=O)[nH]c2=S)c1 | -0.3 | 1.9
COc1ccc(S(=O)(=O)Nc2ccnn2C)cc1 | nt | -0.56
CC(C)(C)c1ccc(S(=O)(=O)CCSc2nc3ccccc3s2)cc1 | -0.4 | 0.26
CCCN1CCC(N(C2CC2)S(=O)(=O)c2ccc(Cl)cc2)CC1 | nt | -0.36
O=C(CCn1c(=O)c2cccn2c2cccnc21)NCc1ccccc1 | 1.1 | 9.6
CC1(C)CC(=O)C2=C(C1)Nc1[nH]n(-c3ccccc3)c(=O)c1C2c1cccs1 (stereo not drawn) | -0.6 | -2.4
CC(Oc1ccc(-c2nnco2)cc1)C(=O)NC1(C#N)CCCCC1 (stereo not drawn) | 0.2 | nt
CCOC(=O)C1=C(N)n2c(s/c(=C\c3ccco3)c2=O)=C(C#N)C1c1ccco1 (stereo not drawn) | nt | 5.9
O=C(Nc1ccc(CSc2ccc(Cl)cc2)cc1)c1ccccc1 | nt | 0.17

Screening data as filed in PubChem.
